High-throughput results (PubChem)
VDR inhibitor: blocks the human vitamin D receptor; 400,000 compounds, 0.93% hits; P11473; Potency, µM, without a hit: max response, negative = inhibition, hits mostly inhibitors; VDR-SRC2-3 peptide fluorescence polarization, 2 h; AID 504847; active = well fitted inhibition curve with a large enough effect; inconclusive = small, poorly fitted or top-dose-only effect, or another doubt; inactive = no such curve, though single readings can be large or run the other way; also: series mostly up to about 120 µM
Target sequence (P11473 whole entry, looked up): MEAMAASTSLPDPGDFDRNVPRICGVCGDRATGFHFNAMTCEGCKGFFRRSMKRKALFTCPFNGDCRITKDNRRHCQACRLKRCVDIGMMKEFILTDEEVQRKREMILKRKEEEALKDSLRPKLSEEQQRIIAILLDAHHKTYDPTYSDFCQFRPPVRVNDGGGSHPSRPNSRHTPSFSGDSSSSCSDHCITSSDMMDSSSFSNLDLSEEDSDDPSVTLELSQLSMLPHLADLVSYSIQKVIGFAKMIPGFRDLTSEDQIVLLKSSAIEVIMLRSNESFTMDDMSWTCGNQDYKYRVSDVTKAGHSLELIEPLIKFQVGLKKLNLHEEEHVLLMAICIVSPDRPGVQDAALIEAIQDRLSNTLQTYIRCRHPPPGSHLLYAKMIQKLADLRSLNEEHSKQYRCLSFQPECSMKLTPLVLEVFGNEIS
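The screen uses fluorescence polarization to detect compounds that interfere with recruitment of the SRC2-3 coactivator peptide to VDR; plates are read after 2 h at room temperature.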
* = called active by the depositor; ? = inconclusive; & = joins results of further samples; ! = a repeat was not active. % is scaled to controls: 0 for no effect and ±100 for the full control effect; potency is read from the fitted curve at half-maximal effect. This is a subset (hit frequency here may not be typical).

| VDR inhibitor | Structure |
| --- | --- |
| -2.9% | CN(C(=O)COc1ccccc1)C1CCS(=O)(=O)C1 (stereo not drawn) |
| -15.5% | Cc1cccc(NC(=O)CSCC(=O)Nc2cc(S(=O)(=O)N3CCOCC3)ccc2N2CCCC2)c1 |
| 10.9% | CCCCc1ccc(/C(C)=N/NC(=O)C2CCCC2)cc1 |
| -25.1% | NS(=O)(=O)c1ccc(NC(=O)CSc2nnc(NC3CC3)s2)cc1 |
| 17.8% | Cc1noc(C)c1S(=O)(=O)N1CCC(C(=O)Nc2ccc(OC(F)(F)F)cc2)CC1 |
| 0.9% | CC(=O)c1nnn(-c2nc(N3CCCC3)nc(N(c3ccccc3)c3ccccc3)n2)c1C |
| 3.3% | CC(=O)Nc1ccccc1-c1nn[nH]n1 |
| -15.4% | CCOc1ccc(-c2nnc(N(CC)C(=O)C3CCC3)s2)cc1 |

Random excerpt: 2 compounds from above, in no set order.
| VDR inhibitor | Structure |
| --- | --- |
| 0.9% | CC(=O)c1nnn(-c2nc(N3CCCC3)nc(N(c3ccccc3)c3ccccc3)n2)c1C |
| -15.5% | Cc1cccc(NC(=O)CSCC(=O)Nc2cc(S(=O)(=O)N3CCOCC3)ccc2N2CCCC2)c1 |

Next entries follow:
| VDR inhibitor | Structure |
| --- | --- |
| 14.3% | O=C(OCc1cc(-c2ccccc2)no1)c1ccc2ccccc2n1 |
| 8.4% | NS(=O)(=O)c1ccc(NC(=O)COC(=O)c2ncc(Cl)c(Cl)c2Cl)cc1 |
| 2.7% | CCOc1ccccc1CNC(=O)c1ccc2nc(CCc3ccccc3)oc2c1 |
| -6.0% | Cc1cc(NS(=O)(=O)c2ccc(NC(=O)c3ccc(Br)o3)cc2)nc(C)n1 |
| ? | N#C/C(=C\c1cccnc1)C(=O)Nc1ccccc1 |
| 5.0% | Cc1cc(C(=O)NC2CCCc3c2cnn3-c2ccc(C)c(C)c2)n(C)n1 (stereo not drawn) |
| -18.7% | S=C(NC1CCCCC1)c1ccc2c(c1)OCO2 |
| -14.2% | COc1cccc(NC(=O)c2csc3c2CCCC3)c1 |

(cont.)
| VDR inhibitor | Structure |
| --- | --- |
| -3.3% | CC(C)Oc1ccc(CNC(=O)Cn2c(=O)c3cccn3c3cccnc32)cc1 |
| 1.9% | CC(Sc1nnnn1-c1ccc(Cl)cc1)C(=O)NCC(=O)Nc1ccc(F)c(F)c1F (stereo not drawn) |
| -21.4% | COc1cc(O)ccc1-c1nc2cc(C)ccn2c1Nc1ccccc1C |
| -0.8% | C[C@H]1CC2C3CCC4=CC(=O)C=C[C@]4(C)[C@@]3(Cl)[C@@H](O)C[C@]2(C)[C@@]1(O)C(=O)CO (stereo partly drawn) |
| 9.6% | COC(=O)C1=C(C)N(Cc2ccccc2)C(=O)N[C@H]1c1ccc(Br)cc1 |
| -0.7% | O=C(Nc1cccnc1Cl)c1cc2ccccc2o1 |
| 5.2% | OCC(CO)c1cnnc2ccccc12 |
| 9.1% | CCN(CC)S(=O)(=O)c1ccc(/C=C/C(=O)Nc2ccc(Br)cc2F)cc1 |

Among those listed so far, two have an aryl thioether with sulfur outside any ring.
| VDR inhibitor | Structure |
| --- | --- |
| -25.1% | NS(=O)(=O)c1ccc(NC(=O)CSc2nnc(NC3CC3)s2)cc1 |
| 1.9% | CC(Sc1nnnn1-c1ccc(Cl)cc1)C(=O)NCC(=O)Nc1ccc(F)c(F)c1F (stereo not drawn) |

Going on with the list.
| VDR inhibitor | Structure |
| --- | --- |
| 0.6% | O=[N+]([O-])c1ccc(CN2CCN(c3ccc(Cl)cc3)CC2)o1 |
| -11.7% | CCOC(=O)/C=C1/SCC(=O)N1CC(=O)Nc1cccc(F)c1 |
| -13.1% | Cc1ccc(C(=O)NC(=S)Nc2ccccc2N2CCCC2)cc1[N+](=O)[O-] |
| 7.4% | O=C1CC(C(=O)O)S/C(=N\NC(=O)c2ccc(F)cc2)N1 (stereo not drawn) |
| 0.9% | Cc1nccn1CCOc1ccc(Cl)cc1 |
| 7.1% | Cc1ccc(CSC2=Nc3ccccc3C3=NC(CC(=O)NCc4ccc5c(c4)OCO5)C(=O)N23)cc1 (stereo not drawn) |
| 2.1% | Cc1cc(C)cc(C(=O)N(C)C2CCCN(Cc3ccccc3F)C2)c1 (stereo not drawn) |
| 7.1% | COCc1cc(CN2CCN(CCCc3ccccc3)C(CCO)C2)ccc1OC (stereo not drawn) |

Continued.
| VDR inhibitor | Structure |
| --- | --- |
| -9.1% | CC(C)Cc1nnc(NC(=O)CCS(=O)(=O)c2ccc(Cl)cc2)s1 |
| -0.9% | CCOC(=O)c1nnn2c1nc(N1CCN(C)CC1)c1ccccc12 |
| 8.8% | COC(CNC(=O)CN1CCN(Cc2ccc(F)cc2Cl)C1=O)OC |
| 11.4% | CCC(Cc1ccccc1)NC(=O)CCNS(=O)(=O)c1cc(Br)cnc1N (stereo not drawn) |
| -3.9% | CS(=O)CSc1nc2c(cc1C#N)CCCC2 (stereo not drawn) |
| 9.4% | Fc1cccc(-c2nnn3c2nc(Cl)c2ccccc23)c1 |
| -13.2% | COc1cc(/C=N/NC(=O)Nc2ccccc2)ccc1OC(C)=O |
| 7.0% | COc1ccc(NC(=O)NC2(C(=O)N3CCOCC3)CCCCC2)cc1 |

Next part:
| VDR inhibitor | Structure |
| --- | --- |
| -8.8% | Cc1ccc(C(c2sc3ncnn3c2O)N2CCCCC2)cc1 (stereo not drawn) |
| -27.2% | Cc1ccc2c(c1)sc1nc(=O)ccn12 |
| -5.6% | Fc1ccccc1/C=N/n1c(COc2ccccc2)n[nH]c1=S |
| -10.9% | O=C(c1ccc2c(c1)N(Cc1ccccc1)C(=O)c1ccccc1S2(=O)=O)N1CCc2ccccc21 |
| -8.6% | Cc1cc(F)ccc1-n1nnc(C(N)=O)c1C |
| 11.7%&5.2% | Cc1ccc(Nc2nc(N)nc(CSc3nc4ccccc4s3)n2)cc1 |
| -11.4% | COc1ccccc1S(=O)(=O)N1CCN(S(=O)(=O)c2cccs2)CC1 |
| -3.4% | O=C(CCc1c[nH]c2ccccc12)OCc1ccc(Br)cc1 |

(listing goes on)
| VDR inhibitor | Structure |
| --- | --- |
| 2.3% | CCOC(=O)c1ccc(NC(=O)CSc2ccc(-c3sc(C)nc3C)nn2)cc1 |
| ? | O=C(NC1(O)C(=O)c2ccccc2C1=O)c1ccccc1 |
| 5.5% | O=C(CN(CC1CCCO1)C(=O)CCC(=O)Nc1nccs1)NCC1CCCO1 (stereo not drawn) |
| 3.0% | Cc1cc(C)c(OCC(=O)N(Cc2ccc(N(C)C)cc2)Cc2ccco2)c(C)c1 |
| -7.1% | Cc1ccc(Sc2ncccc2C(N)=O)cc1 |
| -13.8% | NC(=O)C1CCN(CC(O)COc2ccc(-c3ccccc3)cc2)CC1 (stereo not drawn) |
| 6.2% | NC(=O)c1ccc(NC(=O)CSc2nc3ccccc3c(=O)n2CCCN2CCOCC2)cc1 |
| 2.4% | COc1cc(OC)cc(C(=O)NCCn2ccc3ccccc32)c1 |

7 of the compounds above, as a markdown table:
| SMILES | VDR inhibitor |
| --- | --- |
| Cc1cc(C(=O)NC2CCCc3c2cnn3-c2ccc(C)c(C)c2)n(C)n1 (stereo not drawn) | 5.0% |
| S=C(NC1CCCCC1)c1ccc2c(c1)OCO2 | -18.7% |
| COc1cccc(NC(=O)c2csc3c2CCCC3)c1 | -14.2% |
| CC(C)Oc1ccc(CNC(=O)Cn2c(=O)c3cccn3c3cccnc32)cc1 | -3.3% |
| CC(Sc1nnnn1-c1ccc(Cl)cc1)C(=O)NCC(=O)Nc1ccc(F)c(F)c1F (stereo not drawn) | 1.9% |
| COc1cc(O)ccc1-c1nc2cc(C)ccn2c1Nc1ccccc1C | -21.4% |
| C[C@H]1CC2C3CCC4=CC(=O)C=C[C@]4(C)[C@@]3(Cl)[C@@H](O)C[C@]2(C)[C@@]1(O)C(=O)CO (stereo partly drawn) | -0.8% |

New compounds follow
| VDR inhibitor | Structure |
| --- | --- |
| -11.9% | CCc1noc(C)c1C(=O)Oc1ccc(N(C)S(=O)(=O)c2ccc(C)c(C)c2)cc1 |
| 6.4% | CC(NC(=O)C1CCN(C(=O)N2CCOc3ccc(Cl)cc32)CC1)c1ccccc1 (stereo not drawn) |
| -2.1% | Cc1cc(C(=O)CSc2nnc(-c3cccs3)n2Cc2ccccc2)c(C)n1C |
| -9.7% | COc1cc2c(-c3ccc(O)cc3)nc3c(c(C)nn3-c3ccccc3)c2cc1OC |
| 9.8% | Cc1ccc(C(C)C)c(OCCCn2c(=O)oc3ccccc32)c1 |
| -5.1% | Cc1ccc(-c2noc(CCC(=O)N3CCCc4ccccc43)n2)cc1 |
| ? | O=C(NC(=S)NC1CCCCC1)c1ccc(Cl)cc1 |
| 0.5% | O=C1CN(S(=O)(=O)c2ccccc2)CC(=O)N1CCc1ccccc1 |

Further records.
| VDR inhibitor | Structure |
| --- | --- |
| -16.7% | Cc1ccc2nc(Cl)c3cc(C(=O)N4CCCCC4C)sc3c2c1 (stereo not drawn) |
| 16.8% | COc1ccc([C@H]2CC(=O)C=C(c3ccc(Cl)c(C(F)(F)F)c3)C2)cc1OC |
| -23.2% | O=c1cc(O)c2c(=O)n(Cc3ccccc3)c3ccccc3c2o1 |
| -9.8% | COc1ccccc1CNC(=O)c1ccc(-c2ccccc2Cl)o1 |
| -4.2% | O=C(Nc1ccc(S(=O)(=O)Nc2ncccn2)cc1)c1cc([N+](=O)[O-])ccc1Cl |
| -10.7% | C[C@]12C(=O)N(c3cccc(F)c3)C(=O)N1[C@H]1c3ccccc3OC[C@@H]1[C@H]2c1ccccc1 |
| -0.9% | Cc1csc2nc(COC(=O)COc3ccccc3F)cc(=O)n12 |
| -12.2% | Cc1ccccc1OCC(O)CN(CCO)Cc1ccccc1 (stereo not drawn) |

Remaining list, next part.
| VDR inhibitor | Structure |
| --- | --- |
| 7.7% | COC(=O)C1CCN(C(=O)COC(=O)C2CCN(S(=O)(=O)c3ccc(C)c(C)c3)CC2)CC1 |
| 18.0% | O=C1CCc2cc(S(=O)(=O)Nc3ccc(F)cc3)ccc2N1 |
| 0.6% | O=C(CSc1nc2ccccc2o1)NC1CCS(=O)(=O)C1 (stereo not drawn) |
| 7.9% | O=C(OCC(=O)N1CCN(c2ccccc2)CC1)c1ccccc1OC(F)F |
| 8.3%&-0.6% | O=C(Cn1ncc2c([nH]c3ccccc32)c1=O)NCC1CCN(Cc2ccc(F)cc2)CC1 |
| 2.6% | Cc1nc2c(C(=O)NCc3ccccc3Cl)cnn2c(C)c1Cc1c(F)cccc1Cl |
| 3.3% | CC(Sc1nc(-c2ccccc2)cc(C(F)(F)F)n1)C(=O)Nc1sc2c(c1C#N)CCC2 (stereo not drawn) |
| -13.0% | COc1cc(NC(=O)CSc2nc(-c3cccs3)cc(C(F)(F)F)n2)cc(OC)c1OC |

Reprinted from the part before: 3 entries, followed by the next part.
| VDR inhibitor | Structure |
| --- | --- |
| 2.6% | Cc1nc2c(C(=O)NCc3ccccc3Cl)cnn2c(C)c1Cc1c(F)cccc1Cl |
| 3.3% | CC(Sc1nc(-c2ccccc2)cc(C(F)(F)F)n1)C(=O)Nc1sc2c(c1C#N)CCC2 (stereo not drawn) |
| -13.0% | COc1cc(NC(=O)CSc2nc(-c3cccs3)cc(C(F)(F)F)n2)cc(OC)c1OC |
| -18.8% | OC(Cc1ccnc2ccccc12)C(Cl)(Cl)Cl (stereo not drawn) |
| -0.3% | CC(=NN=C(C)c1ccc(O)cc1)c1ccc(O)cc1 |
| -2.3% | CC(C)(C)C(=O)N1CCN(c2c(Cl)cccc2[N+](=O)[O-])CC1 |
| 4.0% | COc1ccc(CNC(=O)CSc2nc(-c3ccccc3)cc(-c3cccs3)c2C#N)cc1 |
| -7.1% | Cc1ccc(NC(=O)COC(=O)Cn2cnc3c2c(=O)n(C)c(=O)n3C)cc1Cl |
| 11.6% | O=C(CSc1nc2ccccc2nc1Cc1ccccc1)N1CCCCC1 |
| 9.5% | O=C(NCc1ccccc1)c1cc(-c2ccco2)on1 |
| -14.0% | CCOc1ccc(N(CC(=O)NC2CCCC2)C(=O)CCC(=O)Nc2ccccn2)cc1 |

Additional results
| VDR inhibitor | Structure |
| --- | --- |
| -5.5% | COc1ccc(CN2CCNC(=O)C2CC(=O)NCc2cccc(C)n2)c(OC)c1 (stereo not drawn) |
| -11.5% | Cc1ccc(N2CCN(C(=O)c3ccc4c(Cl)c5c(nc4c3)CCCC5)CC2)c(C)c1 |
| -0.3% | O=c1cc(-c2cccs2)oc2ccc(Cl)cc12 |
| 11.5% | O=C(CC(NC(=O)C(F)(F)F)c1ccccc1)Nc1nnc(CCc2ccccc2)s1 (stereo not drawn) |
| -14.0% | Cc1noc(C)c1S(=O)(=O)N1CCCC(C(=O)N2CCN(C3CCCCC3)CC2)C1 (stereo not drawn) |
| 0.1% | O=C(Nc1ccc(N2CCCCC2)cc1)c1cccnc1Cl |
| -2.1% | FC(F)(F)c1cccc(Cc2noc(CN3CCCC(CN4CCCC4)C3)n2)c1 (stereo not drawn) |
| 0.0% | Cc1cc(F)c(F)cc1C(=O)N1CCCC1 |

Continued:
| VDR inhibitor | Structure |
| --- | --- |
| -2.6% | O=C(COc1ccccc1C(=O)Nc1ccccc1)NCCc1ccccc1 |
| -8.9% | CC(C)(C)NC(=O)c1cc([N+](=O)[O-])ccc1N1CCCCC1 |
| 12.5% | COc1ccc(OC)c(N2C(=O)CC(C(C)c3ccccc3)C2=O)c1 (stereo not drawn) |
| 50.1µM*! | CN(Cc1ccco1)c1ncnc2ccc(-c3ccoc3)cc12 |
| 8.5% | Cc1ccccc1N(CC(=O)NCC1CCCO1)C(=O)C1(C)CC(=O)N=C2C=CC=CN21 (stereo not drawn) |
| 0.8% | CCN(CC)C(=O)CSc1ncnc2c1nnn2-c1ccc(OC)cc1 |
| -1.8% | CCCCOc1ccc(/C=N/NC(=O)C2CCCNC2=O)cc1 (stereo not drawn) |
| 5.6% | CCOC(=O)c1ccc(NC(=O)C(C)N2C(=O)c3ccccc3C2=O)cc1 (stereo not drawn) |
